Screening results: PubChem BioAssay, National Center for Advancing Translational Sciences (NCATS)
LASV entry inh: Lassa virus entry inhibition; Lassa virus pseudotype entry inhibition, cell reporter; control for the full effect not named in the record; Potency, µM (titrated, usually from 37.9 µM), without a hit: at the highest dose activity change, negative = inhibition, usual class: inhibitors; 300,000 tested, 1.2% active; active means well fitted inhibition curve with a large enough effect; inconclusive means small, poorly fitted or top-dose-only effect, or effect the other way; inactive means flat fitted curve, though single readings scatter; tested in HEK293 cells; also: % is scaled to controls: 0 for no effect and ±100 for the full control effect; nearly all actives have a fitted effect of over 50% in size; luciferase read-out
SARS PLP yeast: SARS-CoV PLP inhibition in yeast; S. cerevisiae expressing SARS-CoV PLpro, growth rescue; control for the full effect not named in the record; Potency, µM (top dose mostly 32.9 µM), without a hit: top-dose activity, positive = growth rescue; 330,000 tested, 0.19% active; AID 485353; also: 0% is about no effect; nearly all actives have a fitted effect of over 55% in size; growth read by luminescence after 48 h
RE007 growth inh: less growth of the S. pombe RE007 Vpr strain; S. pombe RE007 Vpr strain, BacTiter-Glo ATP luminescence, 24 h; control for the full effect not named in the record; Potency, µM (top dose mostly 92.2 µM), inactives show top-dose activity change, negative = less growth; 360,000 tested, 0.21% active; active = well fitted falling curve with a large enough effect; inconclusive = small, poorly fitted or top-dose-only effect; inactive = no such curve, though single readings can be large or run the other way;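 also: % is scaled to controls: 0 for no effect and ±100 for the full control effect; nearly all actives have a fitted effect of over 50% in size; the assay follows cell death caused by Vpr and the record does not say whether a fall means rescue or toxicity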
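Fission yeast RE007 carrying one integrated HIV-1 vpr copy, seeded at OD 0.01 in PMG+AL medium with 23 nL pinned compound. Grown 24 h at 30 degrees; viability read by BacTiter-Glo luminescence after 5 min.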
Cruzain noTriton: inhibitors of Trypanosoma cruzi cruzain without detergent. P25779. purified cruzain, Z-FR-AMC fluorescence, no detergent. Potency, µM, for inactives: max response, negative = inhibition, actives largely listed as inhibitors. 200,000 tested, 2.3% active; active = well fitted curve in the direction sought with a large enough effect; inconclusive = small, poorly fitted or top-dose-only effect, or another doubt; inactive = no such curve, though single readings can be large; an effect the other way counts as inactive or inconclusive;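 also: plate controls were enzyme without inhibitor for no effect and buffer without enzyme for full effect; nearly all actives have a fitted effect of over 40% in size; top concentration of the series not given in the record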
Target sequence (P25779 123-467 limits assumed): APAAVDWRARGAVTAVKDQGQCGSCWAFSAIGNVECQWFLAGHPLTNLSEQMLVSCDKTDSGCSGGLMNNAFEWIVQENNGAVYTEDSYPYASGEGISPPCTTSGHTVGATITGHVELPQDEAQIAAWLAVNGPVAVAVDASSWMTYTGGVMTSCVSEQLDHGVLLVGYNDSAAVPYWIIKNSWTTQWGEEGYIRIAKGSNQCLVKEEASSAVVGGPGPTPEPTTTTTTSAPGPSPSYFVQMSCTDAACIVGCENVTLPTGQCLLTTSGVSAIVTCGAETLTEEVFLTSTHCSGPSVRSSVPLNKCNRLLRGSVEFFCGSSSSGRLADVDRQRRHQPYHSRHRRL
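Purified cruzain at 1.5 nM, pre-incubated 15 min with compound at room temperature in 100 mM sodium acetate pH 5.5, 5 mM DTT, 0.00005% Triton X-100. Reaction started with 2 uM Z-FR-AMC; AMC fluorescence increase over 60 s gives rate.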
2A StopGo: lowers the luciferase signal of an FMDV 2A StopGo reporter; human cells with a luciferase reporter of 2A StopGo recoding; control for the full effect not named in the record; Potency, µM (top dose mostly 57.9 µM), without a hit: at the top dose signal change, negative = less light; 410,000 tested, 1.2% active; active = well fitted falling curve with a large enough effect; inconclusive = small, poorly fitted or top-dose-only effect; inactive = no such curve, though single readings can be large or run the other way; tested in HEK293T cells; also: % is scaled to controls: 0 for no effect and ±100 for the full control effect; nearly all actives have a fitted effect of over 45% in size; luciferase light after 4 h
Cruzain Triton: blocks cruzain activity in presence of Triton detergent; Potency, µM, for the others: max response, negative = inhibition, most hits filed as inhibitors; P25779; 200,000 tested, 0.43% active; purified cruzain, Z-FR-AMC fluorescence, 0.01% Triton; active = well fitted curve in the direction sought with a large enough effect; inconclusive = small, poorly fitted or top-dose-only effect, or another doubt; inactive = no such curve, though single readings can be large; an effect the other way counts as inactive or inconclusive;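 also: plate controls were neutral wells for no effect and buffer without enzyme for full effect; nearly all actives have a fitted effect of over 40% in size; top concentration of the series not given in the record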
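Z-FR-AMC hydrolysis (2 uM substrate) by cruzain (1.5 nM) monitored kinetically at ex 360/em 450 nm after 15 min room-temperature compound exposure; 0.01% Triton X-100, pH 5.5, 5 mM DTT.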
Marburg entry inh: Marburg virus entry inhibition | Potency, µM (top dose mostly 37.8 µM), for inactives: top-dose activity change, negative = inhibition, actives largely listed as inhibitors | AID 540276 | Marburg virus pseudotyped entry inhibition, cell reporter; control for the full effect not named in the record; about a third of the inactives were read at about 46 µM | 300,000 tested, 1.8% active; active = well fitted inhibition curve with a large enough effect; inconclusive = small, poorly fitted or top-dose-only effect, or effect the other way; inactive = flat fitted curve, though single readings scatter; tested in HEK293 cells; about a fifth of its hits are not listed in these tables; also: % is scaled to controls: 0 for no effect and ±100 for the full control effect; luciferase read-out
NS1 inh: inhibitors of influenza NS1 protein function; S. cerevisiae slowed by influenza A NS1, growth recovery by OD600; Potency, µM (doses to about 46.1 µM), for the others: at the highest dose activity, positive = more growth; 270,000 tested, 0.4% active; AID 2326; also: actives are rising curves; nearly all actives have a fitted effect of over 50% in size
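Compounds were scored for reversing the slow growth caused by influenza A NS1 in S. cerevisiae, measured by optical density at 600 nm. Assay medium contained 2% galactose at pH 6.0; NS1-free yeast of the same strain were the positive control.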
An asterisk follows results filed as active; ? = inconclusive; nt = no result given; [ ] = another dose, or the depositor's remark. Unless noted, calls follow the shape of the dose curve; as a rule, active means well fitted rising curve with a large enough effect; inconclusive means small, poorly fitted or top-dose-only effect; inactive means no such curve, though single readings can be large or run the other way. Potency is read from the fitted curve at half-maximal effect.

SMILES | LASV entry inh | SARS PLP yeast | RE007 growth inh | Cruzain noTriton | 2A StopGo | Cruzain Triton | Marburg entry inh | NS1 inh
Cc1ccc(C(=O)N(C)CC(=O)Nc2cccc(F)c2)cc1S(=O)(=O)N1CCCCC1 | -5% | 0% | 16% | nt | 13% | nt | -26% | nt
O=C(CCCOc1ccc(Cl)cc1Cl)Nc1cccnc1 | 9% | -10% | 12% | -2% | 0% | -2.1% | -11% | -156%
CCOP1(=O)C=C(Sc2ccc([N+](=O)[O-])cc2[N+](=O)[O-])C(C)(C)O1 (stereo not given) | 21% | nt | -11% | nt | ? | nt | -3% | nt
Cc1ccc(CNC(=O)C2CCCN(c3nc4ccccc4o3)C2)cc1 (stereo not given) | -4% | 2% | 1% | 4% | -1% | -2.2% | -9% | -9%
CCOc1ccc(Br)cc1C(=O)N/N=C/c1ccccn1 | 6%[46.1 µM] | -1% | -4% | nt | -15% | nt | ? | -39%
Cc1ccc(-c2nc(S(=O)(=O)c3ccc(C)cc3)c(N3CCOCC3)o2)cc1 | nt | 0% | 4% | nt | 43%[activator] | nt | 1%[46.1 µM] | 6%
CC(C)N(C)Cc1cn(C)nc1-c1ccc(Oc2ccccc2)cc1 | -9% | 5% | -1% | nt | 1% | nt | ? | 5%
COc1ccccc1NC(=O)C(=O)N/N=C(\C)CC(=O)Nc1ccccn1 | nt | 0% | 5% | nt | 6% | nt | nt | -1%
O=C1CCC(=O)N(O)CCCCCNC(=O)CCC(=O)N(O)CCCCCNC(=O)CCC(=O)N(O)CCCCCN1 | nt | 0% | -1% | nt | -14% | nt | nt | 5%
Cc1ccc(/C(N)=N/OC(=O)c2ccc(F)cc2)cc1 | ? | -41% | -28% | ? | 24% | -7.3% | ? | -27%
Cc1c(/C(Cc2ccccc2)=N/O)c2ccccc2n1C | 13% | 13% | 3% | -6% | -10% | -9.0% | 9% | 4%
CC(=O)N1CCc2cc(S(=O)(=O)NC(C)c3ccccc3)ccc21 (stereo not given) | 10%[46.1 µM] | 4% | -3% | nt | -15% | nt | -4%[46.1 µM] | 15%
Cc1c(/C=N/n2cnnc2)c2ccccc2n1CCOc1ccc(Cl)cc1 | -12% | -2% | 5% | ? | ? | -8.5% | ? | -22%
CCNC(=O)N1CCOCC1 | 22% | 2% | 0% | 1% | nt | 5.8% | 15% | 7%
COc1cc(C=C(c2nc3ccccc3s2)c2nc3ccccc3s2)ccc1O | -2%[46.1 µM] | -20% | -20% | ? | 2% | -6.1% | ? | 10%
CC(C)C[C@@H](CO)N1CCN(CCc2ccccc2)CCC1=O | nt | -1% | 10% | nt | -3% | nt | nt | -14%
COc1ccc(N2CCN(CC(=O)Nc3ccc(-n4cnnn4)cc3)CC2)cc1 | 4% | 9% | -12% | -11% | nt | -1.6% | -7% | -1%
CCOc1ccc(NC(=O)N(C2CCCCC2)C(C)c2ccncc2)cc1 (stereo not given) | nt | -8% | -9% | -3% | 9% | 1.3% | 2% | -41%
O=[N+]([O-])c1ccc(CN2CCN(c3ccccc3)CC2)o1 | 12%[46.1 µM] | -15% | -13% | nt | -11% | nt | 3%[46.1 µM] | -20%
CCOC(=O)c1sc(=NC(=O)CCSc2ccccc2)n(C)c1C | 2% | -1% | -12% | nt | 71%[activator] | nt | 10% | 2%
O=C(NCCCc1nc2ccccc2n1Cc1ccc(Cl)cc1Cl)c1ccco1 | 1%[46.1 µM] | nt | nt | 24% | ? | -10% | -11%[46.1 µM] | nt
COCc1cc(Sc2ccc(Cl)cc2)nc(C)n1 | 11%[46.1 µM] | -1% | 2% | nt | -9% | nt | 0%[46.1 µM] | 0%
COc1ccc(Cc2nnc(NC(=O)CSc3ccc(C)cc3)s2)cc1OC | -23% | 13% | 13% | 10% | -17% | -4.6% | 0% | ?
CCOC(=O)c1cc(-c2ccc(/C=C3/C(=O)N(c4ccc(C(=O)O)cc4)N=C3C)o2)ccc1Cl | 2% | -1% | -2% | nt | 0% | nt | 18%[46.1 µM] | 3%
O=C(OCc1nc2ccc(Cl)cc2n1CCO)c1ccc(O)cc1 | 0% | 18% | -21% | ? | -27% | -23% | -26% | 9%
COC(=O)CNC(=O)COC(=O)/C=C/c1cccs1 | 13% | 1% | 24% | nt | 8% | nt | -4% | -1%
CN[C@H]1CCc2cc(OC)c(OC)c(OC)c2-c2ccc(N(C)CC(OC)OC)c(=O)cc21 | nt | 1% | 0% | nt | -10% | nt | nt | -1%
Cc1ccc(CNC(=O)c2ccc(F)c(S(=O)(=O)N3CCOCC3)c2)cc1 | -6% | -1% | 3% | nt | 27% | nt | ? | nt
O=C(/C=C/Nc1ccc(S(=O)(=O)Nc2cnc3ccccc3n2)cc1)c1cccnc1 | nt | 0% | 7% | nt | 69%[activator] | nt | nt | 0%
CCC1=Nc2cc(C(=O)N3CCC4(CC3)OCCO4)ccc2Sc2ccccc21 | 4%[46.1 µM] | 7% | 4% | nt | -6% | nt | 2%[46.1 µM] | 6%
COc1ccc(NC(=S)N2CCC(C(=O)c3ccc(OC)cc3)CC2)cc1 | -28% | -2% | 32% | nt | 42%[activator] | nt | -7% | 15%
CC(C)(C)/C(O)=C/c1nc2ccccc2oc1=O | 1% | -1% | -26% | nt | 11% | nt | 26%[46.1 µM] | -2%
COc1cc(OC)c(OC)cc1CN1CCc2nc(Nc3ccc4c(c3)OCCO4)ncc2C1 | 0%[46.1 µM] | nt | nt | -2% | ? | -1.9% | nt | nt
COc1ccc(NC(=O)Cn2c(=O)n(Cc3ccccc3OC)c(=O)c3cccnc32)cc1Cl | nt | nt | nt | 1% | -5% | -3.5% | ? | nt
C[Si](C)(C)n1ccnc1 | nt | -4% | -6% | nt | -21% | nt | nt | 22%
COCc1ccc(C(=O)NC2CCCN(Cc3ccccc3F)C2)o1 (stereo not given) | -4% | 6% | -17% | nt | -20% | nt | 21% | 3%
CC(=O)Oc1ccc(Oc2ccc(-c3noc(C)n3)cc2)cc1 | 3% | -4% | ? | 9% | 22% | -3.4% | -7% | -16%
Cc1ccc(-n2c(N)cc(=O)nc2SCC(=O)N2CCN(c3ccccc3)CC2)cc1C | -2% | 0% | -5% | nt | 4% | nt | 10% | 26%
COc1ccccc1C(=O)N/C(=C\c1cn(S(=O)(=O)N(C)C)c2ccccc12)C(=O)NCCCn1ccnc1 | 6%[46.1 µM] | nt | nt | 9% | 52%[activator] | -3.1% | ? | nt
CC(=O)c1cccc(NC(=O)C(C)OC(=O)CCCN=C2NS(=O)(=O)c3ccccc32)c1 (stereo not given) | 17% | -1% | 0% | nt | 12% | nt | 8% | nt
O=C(CNc1ccccc1OC(F)F)N1CCc2ccccc21 | 3% | 1% | -13% | nt | 57%[activator] | nt | -13%[46.1 µM] | nt
O=C(CSc1nc(O)c(Cc2ccccc2)c(=O)n1-c1ccccc1)N1CCOCC1 | 3% | 21% | -10% | 14% | -8% | 6.4% | 3% | 3%
O=C(COc1ccccc1)NCC(=O)N/N=C/c1cccs1 | nt | 3% | -10% | -1% | -8% | -1.5% | 1% | -10%
CC1CCN(S(=O)(=O)c2ccc(NC(=O)[C@@H]3CCCC[C@@H]3C(=O)O)cc2)CC1 | 2% | -1% | 5% | nt | 27% | nt | -12%[46.1 µM] | 5%
O=[N+]([O-])c1cc(/C=N/O)ccc1SCc1ccccc1 | 12% | 1% | -9% | ? | 7% | 3.4% | 7% | -3%
CCn1c(N2CCN(C(=O)/C=C/c3ccccc3)CC2)nc2ccccc21 | -24%[46.1 µM] | -1% | 12% | nt | -15% | nt | 0%[46.1 µM] | -11%
CCN1CCN(C(=O)Cn2ncc3ccsc3c2=O)CC1 | nt | 2% | 7% | 6% | -19% | -0.8% | nt | 5%
O=S(=O)(Nc1ccccc1N1CCCCC1)c1ccccc1 | nt | -7% | 13% | nt | -29% | nt | nt | -1%
O=C(/C=C/c1cccc([N+](=O)[O-])c1)NCCSCc1cccc(Cl)c1 | 2% | -52% | 15% | -1% | ? | -5.9% | 2% | -43%
O=C(O)/C=C\c1cccc(-n2nnnc2SCc2ccccc2F)c1 | nt | -1% | 10% | nt | 8% | nt | nt | 5%
COc1ccccc1S(=O)(=O)Cc1ccc(C(=O)N2CCN(c3cc(Cl)ccc3C)CC2)o1 | ? | nt | nt | ? | ? | -3.4% | -5%[46.1 µM] | nt
CCc1ccc(NC(=O)COc2ccc3c(c2)OCO3)cc1 | nt | -20% | -7% | nt | 45%[activator] | nt | nt | -48%
Cc1cc(C)n(CC2CC(=O)N(c3ccccc3)C2=O)n1 (stereo not given) | nt | -1% | -5% | nt | -14% | nt | nt | -5%
CCOC(=O)c1ccc(NC(=O)Nc2c(C)nn(C)c2C)cc1 | -1% | 2% | -1% | -11% | 1% | -2.6% | -13% | -14%
COc1ccc2c(c1)c(C(=O)N/N=C/c1ccc(Br)cc1)c(C)n2C | nt | -6% | 3% | nt | -20% | nt | nt | -14%
NNC(=S)Nc1cccc(-c2n[nH]c(=S)o2)c1 | nt | 0% | 9% | nt | -7% | nt | nt | 10%
COc1ccccc1NC(=S)NCCc1ccccc1 | 2% | 13% | -4% | -4% | 21% | 0.4% | ? | -17%
C=Cn1cc[n+](CC(=O)c2ccc(C)cc2)c1 | 4% | -1% | 2% | nt | -7% | nt | ? | nt
OC1CCN(C(c2ccc3ncccc3c2)c2nnnn2C2CCCCC2)CC1 (stereo not given) | -3% | -1% | 7% | 8% | nt | 1.3% | 7% | -7%
O=C(CCCN1C(=O)c2ccccc2C1=O)Nc1c2c(nc3c1CCC3)CCC2 | -1% | 3% | 0% | -3% | -5% | 6.8% | ? | 6%

(further entries)
SMILES | LASV entry inh | SARS PLP yeast | RE007 growth inh | Cruzain noTriton | 2A StopGo | Cruzain Triton | Marburg entry inh | NS1 inh
CCNC(=S)NNC(=S)NCc1ccccc1 | 12% | 12% | -10% | -4% | 27% | 1.3% | 13% | -26%
O=C(NCCc1ccc(F)cc1)C(=O)NCC1CCCN1S(=O)(=O)c1cccs1 (stereo not given) | ? | 2% | -5% | nt | -21% | nt | nt | nt
CCC(=O)c1ccc(OCC(=O)OC(C)C(=O)N2CCc3ccccc32)cc1 (stereo not given) | -1% | 0% | 10% | nt | -1% | nt | 3% | nt
COc1cccc(N2C(=O)CSC23C(=O)N(Cc2ccccc2F)c2ccccc23)c1 (stereo not given) | -18%[46.1 µM] | nt | nt | -23% | -26% | -8.3% | nt | nt

An unsorted share of the library (roughly 4.8% active in at least one column).
